Source: PubChem (several laboratories)
FGF22 binding = binders of recombinant human FGF22 by thermal shift; Q9HCT0; SYPRO orange fluorescence; percent of sucrose octasulfate shift, DMSO zero; calls only at 9.99 µM; 340,000 tested, 1.5% active; AID 651658;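 active means melting point raised past a set limit in the mean and every replicate; three in four hits are not shown here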
Target sequence (Q9HCT0 whole entry, looked up): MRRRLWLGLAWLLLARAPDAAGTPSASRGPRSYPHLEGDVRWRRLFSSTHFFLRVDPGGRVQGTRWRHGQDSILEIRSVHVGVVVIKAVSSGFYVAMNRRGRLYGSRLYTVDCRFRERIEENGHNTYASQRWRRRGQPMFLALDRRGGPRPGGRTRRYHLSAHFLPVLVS
UCH37 DUB inh = human UCH37 deubiquitinating enzyme inhibition | AID 588478 | Q9Y5K5 | 330,000 tested, 0.33% active | inhibition, % (test concentration not listed) | purified proteasome/UCH37, Ub-AMC cleavage fluorescence;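 active means mean of two replicates above 20%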;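 further: 0% = compound-free wells with enzyme and 100% = wells lacking proteasome; stock transfer was 100 nL into about 20 µL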
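Material: Human UCH37 enzyme supplied as purified proteasome complex | Schedule: 30 min preincubation with enzyme, 25 min cleavage at room temperature | Detection: AMC fluorescence 355/460 nm | Measure: % inhibition of Ub-AMC cleavage fluorescence | Controls: Wells without proteasome as full block, compound-free enzyme plus substrate as uninhibited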
rRNA inh HTS = selective bacterial rRNA inhibition in E. coli; GFP signal change (wild-type ribosome), % (test concentration not listed); 350,000 tested, 1.6% active; AID 720706; E. coli WT GFP vs humanized-ribosome RFP mutants, fluorescence, 24 h; stronger effect = lower value; DMSO median 0, no signal -100;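 active means significant combined selectivity score with lowered wild-type GFP, culture density cut under 30%, mutant RFP and density less affected; inactive means any of these conditions unmet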; further: one replicate is shown; some compounds called inactive have numbers as strong as hits
HNF4A DNA FP = change in binding of human HNF4 alpha to DNA; HNF4a-FITC DNA binding, fluorescence polarization, 1 h; activity change, % at 10 µM; 360,000 tested, 0.3% active; AID 1224865; in the data active means activity change above about 30%, passing the limit was not always enough;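 further: controls were the assay level and a saturating level of protein; the project sought stronger binding though the title names inhibitors; some compounds called inactive have numbers as strong as hits; positive values seem to mean higher polarization but the record does not say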
Target sequence (P41235 whole entry, looked up): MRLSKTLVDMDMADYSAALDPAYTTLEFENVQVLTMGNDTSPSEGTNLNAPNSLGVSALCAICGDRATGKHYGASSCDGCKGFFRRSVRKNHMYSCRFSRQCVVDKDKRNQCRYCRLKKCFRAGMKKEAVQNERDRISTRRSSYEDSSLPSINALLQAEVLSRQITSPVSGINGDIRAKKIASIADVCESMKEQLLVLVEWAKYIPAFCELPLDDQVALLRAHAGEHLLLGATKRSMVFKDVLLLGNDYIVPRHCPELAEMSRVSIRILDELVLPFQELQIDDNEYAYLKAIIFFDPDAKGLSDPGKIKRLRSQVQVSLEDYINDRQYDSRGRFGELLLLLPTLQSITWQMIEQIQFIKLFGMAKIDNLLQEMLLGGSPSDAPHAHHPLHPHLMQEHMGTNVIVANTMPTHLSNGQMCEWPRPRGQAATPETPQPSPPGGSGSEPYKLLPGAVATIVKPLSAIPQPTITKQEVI
Beta2AR agonist = agonists of human beta-2 adrenergic receptor inducing internalization; Am2.2-beta2AR cells, FAP receptor internalization, flow cytometry; reference of the scale not given here; P07550; AID 504454; 340,000 tested, 0.43% active; response, % (concentration not given with the values);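 active means response above a set limit, near 3 SD of response in nonfluorescent compounds, cut at about 42% in these data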;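 further: stock transfer was 100 nL into about 11 µL; a reference agonist was the positive control; negative values mostly stem from fluorescent compounds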
Ecoli growth = E. coli growth inhibition | Escherichia coli growth, OD600, 23 h; stronger effect = lower value | OD600 absorbance (no concentration beside the values) | 330,000 tested, 0.21% active;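 active means OD600 absorbance below the run mean of sample wells minus 3.6 SD, in any replicate, cut at about 0.56 in these data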;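 further: stock transfer was 300 nL into about 60 µL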
ALR inh = inhibitors of human sulfhydryl oxidase ALR; P55789; purified ALR, DTT oxidation, H2O2 HRP-luminol luminescence; inhibition, % (concentration not given with the values); 290,000 tested, 3.8% active; AID 485317;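 active means mean and each replicate at 75% or more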;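 further: stock transfer was 7.5 nL into about 7.5 µL; 0% = neutral wells and 100% = wells with inactivated enzyme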
Target sequence (P55789 whole entry, looked up): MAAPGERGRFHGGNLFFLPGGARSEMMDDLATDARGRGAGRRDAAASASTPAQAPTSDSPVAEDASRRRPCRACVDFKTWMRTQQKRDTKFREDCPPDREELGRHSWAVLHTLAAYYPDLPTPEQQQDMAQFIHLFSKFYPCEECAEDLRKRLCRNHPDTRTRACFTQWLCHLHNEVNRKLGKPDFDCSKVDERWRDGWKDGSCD
rRNA inh HTS OD600 = second read-out of rRNA inh HTS, no call of its own (marks repeat the call); OD600 change, %; measured here: OD600 growth;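 optical density of the mix in the first replicate; 0 = DMSO median and -100 = no signal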
rRNA inh HTS RFP = recorded beside rRNA inh HTS, whose call it bears; RFP signal change, %; measured here: RFP humanized mutant strains;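 first replicate; 0 = DMSO median and -100 = no signal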
Active calls of the source: *.

For COc1cc2c(cc1OC)C(c1cc(C)ccc1C)CC(=O)N2 (stereo unspecified) the results were FGF22 binding inactive, UCH37 DUB inh 2.9, rRNA inh HTS 2, HNF4A DNA FP -0.7, Beta2AR agonist 8, Ecoli growth 0.67, ALR inh 0, rRNA inh HTS OD600 0 and rRNA inh HTS RFP -4.9.
`Cc1cccc(C)c1N(CC(=O)N1CCN(c2ccccc2F)CC1)S(C)(=O)=O` gave FGF22 binding inactive, UCH37 DUB inh 5.4, rRNA inh HTS -9, HNF4A DNA FP -0.7, Beta2AR agonist -10, Ecoli growth 0.68, ALR inh 2, rRNA inh HTS OD600 -6 and rRNA inh HTS RFP -0.8.
CCn1c(SCC(=O)Nc2nc(C)cs2)nnc1C(C)NC(=O)c1ccccc1 (stereo unspecified) was read as UCH37 DUB inh 1.2, HNF4A DNA FP 3.2, Beta2AR agonist -6, Ecoli growth 0.71 and ALR inh -15.
`O=C(ONc1ccc(N=NC(=O)c2ccccc2O)cc1)c1ccccc1` gave UCH37 DUB inh 18, HNF4A DNA FP -5.2, Beta2AR agonist 8, Ecoli growth 0.63 and ALR inh 98*.
For COc1ccc(OC(C)C(=O)N2CCCc3ccccc32)cc1 (stereo unspecified) the results were FGF22 binding inactive, UCH37 DUB inh 1.1, rRNA inh HTS -3, HNF4A DNA FP 2.9, Beta2AR agonist 9, Ecoli growth 0.64, ALR inh -6, rRNA inh HTS OD600 -13 and rRNA inh HTS RFP -1.2.
COc1ccc(-c2nc(NC(=O)c3nc4nccc(C)n4n3)sc2C)cc1 was read as FGF22 binding inactive, UCH37 DUB inh 6.4, rRNA inh HTS -7, HNF4A DNA FP 4.9, Beta2AR agonist -15, Ecoli growth 0.64, rRNA inh HTS OD600 -24 and rRNA inh HTS RFP -3.5.
`COC(=O)CC(c1ccc(F)cc1)n1c(C)ccc1C` (stereo unspecified) gave FGF22 binding inactive, UCH37 DUB inh -0.1, rRNA inh HTS 7, HNF4A DNA FP 0.9, Beta2AR agonist -3, Ecoli growth 0.68, rRNA inh HTS OD600 9 and rRNA inh HTS RFP 2.3.
Screening O=C(CCCCCBr)N1CCC(CC2CC(c3cccc(Br)c3)=NO2)(C(=O)NCC2CCCCC2)CC1 (stereo unspecified) returned FGF22 binding inactive, UCH37 DUB inh 1.3, rRNA inh HTS -53, HNF4A DNA FP 3.1, Beta2AR agonist -3, Ecoli growth 0.67, ALR inh -14, rRNA inh HTS OD600 -78 and rRNA inh HTS RFP -11.
CCN(CC(=O)Nc1c(F)cccc1F)C(=O)c1ccc(COc2ccccc2)cc1 was read as FGF22 binding inactive, UCH37 DUB inh -2.8, rRNA inh HTS -6, HNF4A DNA FP 1.2, Beta2AR agonist 2, Ecoli growth 0.7, ALR inh -2, rRNA inh HTS OD600 -11 and rRNA inh HTS RFP 1.7.
`CS(=O)(=O)N1CCCC(C(=O)NCCN2CCC(Cc3ccccc3)CC2)C1` (stereo unspecified) gave UCH37 DUB inh 1.6, HNF4A DNA FP -2.6, Beta2AR agonist -13, Ecoli growth 0.69 and ALR inh -8.
Cc1ccc(S(=O)(=O)Nc2cc(C(=O)N3CCOCC3)ccc2N2CCCCC2)cc1 was read as UCH37 DUB inh 1.8, HNF4A DNA FP -0.1, Beta2AR agonist -5, Ecoli growth 0.73 and ALR inh 5.
`CCOc1ccc(N(CC(=O)N2CCCCCC2)S(=O)(=O)c2ccc(F)cc2)cc1` gave FGF22 binding inactive, UCH37 DUB inh 2.1, rRNA inh HTS -3, HNF4A DNA FP 0.8, Beta2AR agonist -5, Ecoli growth 0.69, ALR inh -3, rRNA inh HTS OD600 -2 and rRNA inh HTS RFP 7.2.
CCOC(=O)N1CCC2(CC1)C(C#N)=C(N)Oc1n[nH]c(CSc3ccc(C)cc3)c12 was read as UCH37 DUB inh 4.5, HNF4A DNA FP 0.9, Beta2AR agonist 15, Ecoli growth 0.76 and ALR inh 40.
For COCC(C)n1c(C)cc(C(=O)COC(=O)c2cc(=O)[nH]c3ccccc23)c1C (stereo unspecified) the results were FGF22 binding inactive, UCH37 DUB inh -22, rRNA inh HTS 9, HNF4A DNA FP 3.5, Beta2AR agonist 0, Ecoli growth 0.68, ALR inh -5, rRNA inh HTS OD600 16 and rRNA inh HTS RFP 0.3.
For N#Cc1c(/N=C/c2ccco2)sc2c1CCC2 the results were HNF4A DNA FP 1.3, Beta2AR agonist -13 and ALR inh 36.
O=C(NCCOc1ccccc1Cl)c1ccc2c(c1)S(=O)(=O)c1cc(Cl)ccc1C2=O was read as FGF22 binding inactive, UCH37 DUB inh -1.8, rRNA inh HTS 1, HNF4A DNA FP -2.4, Beta2AR agonist 15, Ecoli growth 0.7, ALR inh -1, rRNA inh HTS OD600 7 and rRNA inh HTS RFP 4.3.
For O=C(NCCSCc1ccco1)c1ccc(=O)[nH]c1 the results were FGF22 binding inactive, UCH37 DUB inh 0.1, rRNA inh HTS 3, HNF4A DNA FP 0.6, Beta2AR agonist 9, Ecoli growth 0.62, ALR inh -7, rRNA inh HTS OD600 8 and rRNA inh HTS RFP 2.3.
Cc1ccc(NC(=O)COC(=O)c2cc(Cl)ccc2[N+](=O)[O-])c(C)c1 was read as FGF22 binding inactive, UCH37 DUB inh 6.1, HNF4A DNA FP 0.2, Beta2AR agonist -2 and Ecoli growth 0.71.
For Cc1ccc(S(=O)(=O)N(Cc2cccc(C)c2)C(=O)N2CCN(C)CC2)cc1 the results were FGF22 binding inactive, UCH37 DUB inh -0.2, rRNA inh HTS 14, HNF4A DNA FP -1.1, Beta2AR agonist 3, Ecoli growth 0.68, ALR inh -6, rRNA inh HTS OD600 10 and rRNA inh HTS RFP 3.7.
Cc1c(NC(=O)c2cnn3c2NC(c2ccccc2)CC3C(F)(F)F)c(=O)n(-c2ccccc2)n1C (stereo unspecified) was read as UCH37 DUB inh 1.6, HNF4A DNA FP -0.8, Beta2AR agonist -4, Ecoli growth 0.59 and ALR inh -6.
COc1ccc(CNC(=O)O[C@H]2C[C@@H]3C(=O)N(c4ccccc4)C(=O)[C@@H]3[C@@H]3CN(S(=O)(=O)c4ccc(C)cc4)C[C@]23O)cc1OC was read as FGF22 binding inactive, rRNA inh HTS 6, HNF4A DNA FP 4.3, rRNA inh HTS OD600 3 and rRNA inh HTS RFP 2.9.
Screening Cc1ncc2c(c1OC(=O)c1ccc([N+](=O)[O-])cc1)COC(C)(C)OC2 returned UCH37 DUB inh 1.7, HNF4A DNA FP 2.1, Beta2AR agonist -5, Ecoli growth 0.69 and ALR inh -16.
For COc1ccc(C(=O)Nc2ccc(S(=O)(=O)Nc3nccc(C)n3)cc2)cc1 the results were FGF22 binding inactive, UCH37 DUB inh 2.0, rRNA inh HTS 11, HNF4A DNA FP 0.0, Beta2AR agonist -1, Ecoli growth 0.67, rRNA inh HTS OD600 -2 and rRNA inh HTS RFP -0.9.
For C=CCn1c(C)cc(C(=O)CSc2nc(N)cc(N)n2)c1C the results were FGF22 binding inactive, UCH37 DUB inh 4.4, rRNA inh HTS 4, HNF4A DNA FP 6.2, Beta2AR agonist -4, Ecoli growth 0.68, ALR inh 11, rRNA inh HTS OD600 3 and rRNA inh HTS RFP 1.0.
Screening COc1cccc(/C=C2\Sc3ccc(C(=O)NCC4CCCO4)cc3N(C)C2=O)c1 (stereo unspecified) returned FGF22 binding inactive, UCH37 DUB inh 0.0, rRNA inh HTS -25, HNF4A DNA FP -2.1, Beta2AR agonist 3, Ecoli growth 0.7, ALR inh 0, rRNA inh HTS OD600 -27 and rRNA inh HTS RFP -4.6.
CC1(C)CC(=O)c2c(O)cc(OCC(=O)N3CCN(c4ccc(F)cc4)CC3)cc2O1 was read as FGF22 binding inactive, UCH37 DUB inh 1.9, rRNA inh HTS -37, HNF4A DNA FP 0.1, Beta2AR agonist 5, Ecoli growth 0.64, ALR inh 30, rRNA inh HTS OD600 -60 and rRNA inh HTS RFP -3.2.
N#Cc1c(-n2cccc2C=O)sc2c1CCCC2 was read as FGF22 binding inactive, UCH37 DUB inh 3.1, rRNA inh HTS -47, HNF4A DNA FP 3.7, Beta2AR agonist -1, Ecoli growth 0.67, ALR inh 0, rRNA inh HTS OD600 -62 and rRNA inh HTS RFP -34.
For Cc1c(Nc2c3ccccc3nc3ccccc23)c(=O)n(-c2ccccc2)n1C the results were FGF22 binding inactive, UCH37 DUB inh 0.1, rRNA inh HTS -13, HNF4A DNA FP 3.4, Beta2AR agonist -2, Ecoli growth 0.66, ALR inh -12, rRNA inh HTS OD600 -8 and rRNA inh HTS RFP -0.9.
Screening Cn1c(CCNC(=O)c2cc(COc3ccc(F)c(F)c3)on2)nc2ccccc21 returned FGF22 binding inactive, rRNA inh HTS -4, HNF4A DNA FP 2.0, Beta2AR agonist -13, ALR inh -4, rRNA inh HTS OD600 -17 and rRNA inh HTS RFP 7.4.
`CC(C)C[C@H](NC(=O)N1CCn2c1nc1ccccc12)C(=O)NCc1ccco1` gave FGF22 binding inactive, UCH37 DUB inh 2.8, rRNA inh HTS 7, HNF4A DNA FP -1.6, Beta2AR agonist -8, Ecoli growth 0.67, ALR inh 1, rRNA inh HTS OD600 16 and rRNA inh HTS RFP 0.7.
Screening Cc1cc(C)cc(NC(=O)CSc2nc(=O)n(CCCN3CCOCC3)c3c2CCCC3)c1 returned FGF22 binding inactive, UCH37 DUB inh -0.4, rRNA inh HTS -4, HNF4A DNA FP 2.1, Beta2AR agonist -4, Ecoli growth 0.62, ALR inh 96*, rRNA inh HTS OD600 1 and rRNA inh HTS RFP 2.9.
CCOC(=O)C1=C(C(=O)OCC)N(Cc2ccccc2)CCC1=O was read as FGF22 binding inactive, UCH37 DUB inh 6.6, rRNA inh HTS 8, HNF4A DNA FP -2.7, Beta2AR agonist 3, Ecoli growth 0.67, rRNA inh HTS OD600 -3 and rRNA inh HTS RFP 2.4.
For CCNC(=O)CSc1ncnc2sccc12 the results were UCH37 DUB inh 1.4, HNF4A DNA FP 5.1, Beta2AR agonist -1, Ecoli growth 0.75 and ALR inh -3.
COc1ccc(N=Cc2nc(-c3ccccc3)oc2OC(C)=O)cc1 was read as FGF22 binding inactive, UCH37 DUB inh 2.7, HNF4A DNA FP -0.7, Beta2AR agonist 7, Ecoli growth 0.68 and ALR inh -10.
Screening Cc1ccc(CSCC(=O)N/N=C/c2sccc2C)cc1 returned HNF4A DNA FP -2.5, Beta2AR agonist -3 and ALR inh -6.

Random excerpt: four records from the list, in no set order.
For COc1ccc(C(=O)Nc2ccc(S(=O)(=O)Nc3nccc(C)n3)cc2)cc1 the results were FGF22 binding inactive, UCH37 DUB inh 2.0, rRNA inh HTS 11, HNF4A DNA FP 0.0, Beta2AR agonist -1, Ecoli growth 0.67, rRNA inh HTS OD600 -2 and rRNA inh HTS RFP -0.9.
`COC(=O)CC(c1ccc(F)cc1)n1c(C)ccc1C` (stereo unspecified) gave FGF22 binding inactive, UCH37 DUB inh -0.1, rRNA inh HTS 7, HNF4A DNA FP 0.9, Beta2AR agonist -3, Ecoli growth 0.68, rRNA inh HTS OD600 9 and rRNA inh HTS RFP 2.3.
CCOC(=O)C1=C(C(=O)OCC)N(Cc2ccccc2)CCC1=O was read as FGF22 binding inactive, UCH37 DUB inh 6.6, rRNA inh HTS 8, HNF4A DNA FP -2.7, Beta2AR agonist 3, Ecoli growth 0.67, rRNA inh HTS OD600 -3 and rRNA inh HTS RFP 2.4.
For COCC(C)n1c(C)cc(C(=O)COC(=O)c2cc(=O)[nH]c3ccccc23)c1C (stereo unspecified) the results were FGF22 binding inactive, UCH37 DUB inh -22, rRNA inh HTS 9, HNF4A DNA FP 3.5, Beta2AR agonist 0, Ecoli growth 0.68, ALR inh -5, rRNA inh HTS OD600 16 and rRNA inh HTS RFP 0.3.

Not all compounds are listed; count on the stated rates, not on these rows.
